Assay outcomes: PubChem BioAssay, National Center for Advancing Translational Sciences (NCATS)
Six1-Eya2 blk: qHTS Assay for Inhibitors of the Six1/Eya2 Interaction; Homeobox protein SIX1 (Homo sapiens) + Protein phosphatase EYA2 (Homo sapiens), …; AlphaScreen GST-Six1/His-Eya2 binding, biochemical; active compounds read low; control for the full effect not named in the record; activity change, % (no concentration beside the values); actives 0.56% (n = 360,000); AID 651725, 2012; in the data active = activity change below about -65%; inconclusive = about -30% to -65%; inactive = above about -30%; also: % is scaled to controls: 0 for no effect and ±100 for the full control effect
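Six1/Eya2 binding was read as AlphaScreen signal after compounds were pinned into GST-Six1 plus His-tagged Eya2 (5X stock 250/500 nM) in pH 8.0 Tris/NaCl/TCEP buffer, beads added, then incubated 1 h, 37 C, dark.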
TRPML1 ag: qHTS for Agonists of the Human Mucolipin Transient Receptor Potential 1 (TRPML1). Mucolipin-1 (Homo sapiens), Q9GZU1. TRPML1-expressing cells, Ca2+ dye fluorescence, FDSS; host cell line not named in the record; reference of the full effect not given here. activation, % (no concentration beside the values). actives 0.12% (n = 410,000). AID 624414, 2012; in the data active = activation above about 50%; inconclusive = about 30% to 50%; inactive = below about 30%; also: 0% is about no effect; the text of the record puts the active cut at 80%
Target sequence (Q9GZU1 whole entry, looked up): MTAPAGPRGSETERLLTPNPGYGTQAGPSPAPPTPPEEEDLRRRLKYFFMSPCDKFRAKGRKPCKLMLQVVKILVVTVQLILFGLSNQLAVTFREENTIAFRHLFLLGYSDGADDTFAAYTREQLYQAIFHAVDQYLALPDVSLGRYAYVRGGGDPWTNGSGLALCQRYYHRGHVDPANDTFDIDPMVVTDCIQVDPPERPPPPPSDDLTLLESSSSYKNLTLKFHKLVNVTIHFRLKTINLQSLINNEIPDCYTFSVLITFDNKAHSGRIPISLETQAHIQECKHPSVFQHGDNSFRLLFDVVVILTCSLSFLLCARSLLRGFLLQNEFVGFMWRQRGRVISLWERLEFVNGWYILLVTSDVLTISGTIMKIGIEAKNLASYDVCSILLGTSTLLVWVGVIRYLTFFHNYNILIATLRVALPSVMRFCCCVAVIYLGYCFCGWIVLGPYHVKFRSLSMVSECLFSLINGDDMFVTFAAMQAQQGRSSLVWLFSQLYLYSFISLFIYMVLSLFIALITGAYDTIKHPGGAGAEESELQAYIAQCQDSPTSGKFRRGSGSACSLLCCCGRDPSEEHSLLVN
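Cells: TRPML1-DL, 1X Tet inducer, ~16 h at 37 degrees C/5% CO2. Dye: ABD Ca8 no-wash + quencher, 45-90 min RT. Read: 10 s baseline, compound add, 110 s agonist phase; 54-4 EC80 (4uM final), 110 s antagonist phase.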
D2 PAM: Beta-Arrestin HTS for Positive Allosteric Modulators of the Human D2 Dopamine Receptor: Potentiators; D(2) dopamine receptor (Homo sapiens), P14416; actives 0.23% (n = 360,000); DiscoveRx D2 beta-arrestin cells, luminescence, 90 min; 100% = 57 uM dopamine signal; potentiation, % (test concentration not listed); active = potentiation of 50% or more; inconclusive = 30% to 50%; inactive = 30% or less;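 also: compound concentration not given in the record; tested on top of an EC20 dose of dopamine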
Target sequence (P14416 whole entry, looked up): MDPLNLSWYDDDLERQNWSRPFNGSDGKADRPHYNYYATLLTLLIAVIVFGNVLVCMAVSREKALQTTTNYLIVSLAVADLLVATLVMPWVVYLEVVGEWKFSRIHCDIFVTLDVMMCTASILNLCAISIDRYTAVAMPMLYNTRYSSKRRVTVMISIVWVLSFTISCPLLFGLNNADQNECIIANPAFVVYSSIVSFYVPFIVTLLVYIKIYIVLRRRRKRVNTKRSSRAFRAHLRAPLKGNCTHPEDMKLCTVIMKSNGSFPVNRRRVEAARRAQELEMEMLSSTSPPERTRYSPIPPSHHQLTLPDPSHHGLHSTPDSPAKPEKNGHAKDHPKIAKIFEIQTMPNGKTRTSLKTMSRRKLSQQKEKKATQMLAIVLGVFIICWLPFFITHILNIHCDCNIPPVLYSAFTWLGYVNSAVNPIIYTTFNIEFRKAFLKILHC
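PathHunter beta-arrestin assay in DiscoveRx D2 cells. Compounds were added with an EC20 of dopamine (50 nM final) for 90 min at 37 deg C. Luminescence was read 1 h after detection reagent, with 57 uM dopamine as the EC100 control.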
TRPML1 inh: qHTS for Inhibitors of the Human Mucolipin Transient Receptor Potential 1 (TRPML1) | actives 0.02% (n = 390,000) | activity change, negative = inhibition, % (no concentration beside the values) | TRPML1-inducible cells, Ca2+ dye fluorescence, FDSS; active compounds read low; inhibition of EC80 agonist-evoked calcium signal; in the data active means activity change below about -50%; inconclusive means about -30% to -50%; inactive means above about -30%;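 also: stimulus is agonist 54-4 at its EC80 concentration; % is scaled to controls: 0 for no effect and ±100 for the full control effect; compound concentration not given in the record; the text of the record puts the active cut at -80%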
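TRPML1-DL cells, Tet-induced overnight (~16 h, 37 °C) at 1,500 cells/well, were loaded with Ca8 no-wash dye plus quencher for 45-90 min at room temperature. Compounds were pinned during FDSS kinetic reading; agonist 54-4 at EC80 (4 uM final) then added.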
PINK1 expr mod: A Quantitative High throughput Screen to Identify Chemical Modulators of PINK1 Expression; Potency, µM (titrated, usually from 76.6 µM), for the others: at the top dose activation (PINK1 increase), usual class: activators; AID 624263, 2012; actives 0.2% (n = 410,000); PINK1 immunofluorescence, high-content cytometry, 24 h; active = well fitted activation curve with a large enough effect; inconclusive = small, poorly fitted or top-dose-only effect; inactive = flat fitted curve, though single readings scatter; cell line not stated here;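 also: potency is read from the fitted curve at half-maximal effect; % of control where 0% means no effect; nearly all actives have a fitted effect of over 65% in size; a mitochondrial uncoupler was the plate control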
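Stable cell line, 250 cells/well, 12 h attachment; compounds pinned at 5 concentrations, 24 h; CCCP control. Fixed with nuclear dye, primary antibodies 12 h at 10 degrees C, secondary plus cell stain; laser-scanning cytometer read.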
D2 agonist: Beta-Arrestin HTS for Positive Allosteric Modulators of the Human D2 Dopamine Receptor: Agonists | DiscoveRx PathHunter D2 beta-arrestin, luminescence, 90 min; 100% = 57 uM dopamine signal | activation, % (concentration not given with the values) | AID 624465, 2012 | D(2) dopamine receptor (Homo sapiens), P14416 | actives 0.084% (n = 360,000); in the data active = activation above about 40%; inconclusive = about 15% to 40%; inactive = below about 15%; also: compound concentration not given in the record; the text of the record calls up to 30% inactive
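DiscoveRx PathHunter D2 beta-arrestin cells (2,100/well) attached overnight, then compound-stimulated 90 min at 37 C in HBSS/10 mM HEPES/0.1% Tween-20 buffer; beta-galactosidase complementation read by luminescence after 1 h at ambient temperature. Dopamine 57 uM final (EC100) as control.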
Numbers without * were called inactive; ? = inconclusive; . = not tested or not shown; & = joins results of further samples; [ ] = another dose, or the depositor's remark. Not a hit list; 1% or so of the library scored in one or more.

SMILES	Six1-Eya2 blk	TRPML1 ag	D2 PAM	TRPML1 inh	PINK1 expr mod	D2 agonist
COc1ccc(C(=O)OCC(=O)NC(Cc2ccccc2)C(C)=O)cc1S(=O)(=O)N1CCCC1 (configuration not stated)	6	1.1	-4	21	2.3%	-3.8
COc1ccc(NC(=O)c2oc3ccccc3c2NC(=O)Cc2cccs2)c(OC)c1	.	0.6	.	1	6.2%	.
Cc1ccccc1CN1CCC(Oc2ccc(C(=O)NCc3ccccn3)cc2)CC1	-3	1.1	-23	-8	-1.0%	2.5
CC(O)/C=C/C1OC(=O)CC1Nc1ccc(C=O)cc1 (configuration not stated)	3	.	-12	.	1.1%	-4.1
COc1ccc(C(=O)N[C@H](C(=O)OCC(=O)NC(=O)c2cccn2C)C(C)C)cc1	11	-0.1	-7	-14	2.0%	-7.8
Cc1ccc(S(=O)(=O)NC(CC(=O)NCC2CCCO2)c2ccccc2)cc1 (configuration not stated)	3	1.7	-7	-11	-0.3%	2.4
COc1ccc(NC(=O)CCc2nc3ccccc3c(=O)[nH]2)cc1S(=O)(=O)N1CCCCC1	-13	2.2	0	-9	1.0%	-1.7
COc1ccc(N2C(=O)c3cccc4c(N(C)CCO)ccc(c34)C2=O)cc1	-1	?	-15	3	?	-3.8
Cc1cccc(C(=O)N2CC(=O)Nc3ccc(F)cc3C2c2ccc(F)cc2)c1 (configuration not stated)	-6	2.1	-4	9	0.4%	-2.5
Cc1cc(C)n(-c2ncnc3sc4c(c23)CC(C)CC4)n1 (configuration not stated)	6	1.9	-11	19	-0.7%[38.3 µM]	-2.0
CCn1nc(C)c(CCN(C)C(=O)Nc2cccc(Cl)c2C)c1C	.	-0.5	.	15	-0.2%	.
CCOC(=O)N1CCN(c2ccc(F)cc2[N+](=O)[O-])CC1	-6	-0.5	-17	24	-1.1%	-1.8
O=C(Cn1cc(C(F)(F)F)ccc1=O)N/N=C/c1ccc(Cl)cc1	18	1.6	-1	7	-0.3%	2.3
CCOCCCNC(=O)c1c(C)[nH]c(C(=O)OCC)c1C	-3	0.2	4	-6	0.1%[38.3 µM]	1.2
C=CCNC(=S)NNC(=O)c1ccc(C)c(Cl)c1	3	-0.8	-2	4	0.4%	-2.0
COc1ccc(S(=O)(=O)N2CCOCC2)cc1NC(=O)c1ccc(-n2nc(C)cc2C)cc1	13	1.8	4	-7	9.7%	0.4
COc1ccccc1CNC(=O)C1CCCN(C(=O)c2cnn(-c3ccc(F)cc3)c2-n2cccc2)C1 (configuration not stated)	.	3.0	.	-5	0.3%	.
Cc1[nH]c(=O)nc(NN=Cc2ccc(Cl)cc2)c1C(=O)Nc1ccc(Cl)cc1	-4	0.0	-6	-6	4.4%	-0.8
COc1ccc(NC(=O)C2CCN(C(=O)Cc3ccccc3)CC2)cc1OC	4	1.9	4	-11	0.7%	2.1
CC(CNC(=O)CC(C)(C)C)NC(=O)CC(C)(C)C (configuration not stated)	8	-0.8	-4	-13	0.0%	-1.4
O=C(Nc1ccccc1)C1=C[C@@H](c2ccc3c(c2)OCO3)C[C@@H](OCCCCO)O1	0	-0.2	-5	6	-0.9%	0.5
COCC1CCCN(Cc2cn(-c3ccccc3)nc2-c2ccc3c(c2)OCO3)C1 (configuration not stated)	11	0.6	-3	12	-0.3%	-5.7
CCS(=O)(=O)c1ccc(C=NNc2nc3ccccc3o2)cc1	-5	0.9	-8	6	-0.5%	-0.6
Cc1ccccc1Cn1ccc(NC(=O)c2cc3nc(-c4ccco4)cc(C(F)(F)F)n3n2)n1	-1	1.6	-6	1	4.6%	2.1
CCOC(=O)c1sc(NC(=O)C2CC(=O)N(c3ccccc3OC)C2)nc1C (configuration not stated)	-1	0.0	-3	-7	-0.7%	1.5
O=C(Nc1cccc(Cl)c1)NC1CC2CCC1C2 (configuration not stated)	7	0.2	-2	21	7.5%	0.0
Cc1cc2nn(-c3ccc(F)cc3)nc2cc1NC(=O)c1ccc(C(C)(C)C)cc1	.	4.0	.	12	3.5%	.
Cc1ccccc1NC(=O)Nc1c(C)n(C)n(-c2ccccc2)c1=O	-6	0.3	2	15	-1.5%	-0.3
Cc1cc(=O)oc2cc(NC(=O)CN3C(=O)NC(C)(c4ccccc4)C3=O)ccc12 (configuration not stated)	-5	0.4	-7	0	0.7%	-2.9
O=c1[nH]c2cccnc2n1-c1ccc([N+](=O)[O-])cc1	13	.	-4	.	2.2%	0.6

Structures from the list above with a nitro group on carbon:
SMILES	Six1-Eya2 blk	TRPML1 ag	D2 PAM	TRPML1 inh	PINK1 expr mod	D2 agonist
CCOC(=O)N1CCN(c2ccc(F)cc2[N+](=O)[O-])CC1	-6	-0.5	-17	24	-1.1%	-1.8
O=c1[nH]c2cccnc2n1-c1ccc([N+](=O)[O-])cc1	13	.	-4	.	2.2%	0.6

Going on with the list.
SMILES	Six1-Eya2 blk	TRPML1 ag	D2 PAM	TRPML1 inh	PINK1 expr mod	D2 agonist
CC(=O)NCCC(=O)Nc1nc(-c2c[nH]c3ccccc23)cs1	?	-0.6	10	-9	6.3%	1.1
COc1ccccc1CNC(=O)C(C)n1c(=O)cc(-c2ccccc2)c2c(C)nn(C)c21 (configuration not stated)	.	1.6	.	30	0.2%	.
Cc1ccccc1NC(=O)c1cccc(C(F)(F)F)c1	0	0.4	-4	17	0.0%	-1.2
Cc1cc(C(=O)CCC(=O)Nc2ncccc2C)c(C)s1	-5	0.6	-2	-28	1.4%	-3.4
COc1ccc(CN(C)C(=O)c2cccc(S(=O)(=O)N3CCCc4ccccc43)c2)c(OC)c1OC	-3	0.5	1	22	0.4%	3.5
Cc1cc(/C=N/NC(=O)COc2cccc3cccnc23)c(C)n1-c1ccc(O)cc1	4	-0.3	-11	29	1.0%	1.3
CN(CC(=O)Nc1c(Cl)cccc1Cl)C(=O)Cn1[nH]c(=O)c2ccccc2c1=O	-4	-0.6	-12	8	2.2%	-5.0
COc1ccc(CN2C(=O)C(C)Nc3ncnc(N4CCN(c5ccccc5)CC4)c32)cc1 (configuration not stated)	-19&-11	-0.2&-0.3	-34&-24	14&-6	1.1%&1.1%	-12&-18
CCNC(=O)Nc1cc2nc(C)n(Cc3ccc(Br)cc3)c2nc1C	11	-0.1	-3	-2	-1.8%	4.2
O=C1CC(N2C(=O)/C(=C/C=C/c3ccccc3)SC2=S)C(=O)N1c1ccccc1 (configuration not stated)	6	1.4	-7	-23	5.0%	-4.1
O=C(COc1ccc(Br)cc1)N1CCN(c2ccc([N+](=O)[O-])c(N3CCCCC3)c2)CC1	-23	1.1	-9	-1	2.5%	1.6
C[C@H]1CN([C@@H](C)CO)C(=O)CCCn2cc(nn2)CO[C@@H]1CN(C)C(=O)Nc1ccc(N2CCN(C)CC2)cc1	1	.	.	.	2.0%	0.8
O=c1[nH]cccc1-c1nc2cc(Cl)ccc2n1Cc1ccccc1	5	0.2	-2	7	-2.2%	9.5
COc1ccc2c(=O)c(-c3cnn(-c4ccccc4)c3)c(C)oc2c1	-10	-0.3	12	5	.	0.6
CCc1c(C)c2ccc(O)c(CN3CCN(c4cc(Cl)ccc4C)CC3)c2oc1=O	.	-0.5	.	-8	1.3%	.
Cc1cccc(OC2CCN(Cc3c(C(=O)N4CCCC4)nc4ccccn34)CC2)c1	32	1.8	-4	23	1.1%	-2.2
C=C1C[C@@H]2C[C@@H]2CN(S(=O)(=O)c2ccc(C)cc2)[C@@H]1c1ccco1	0	0.0	.	.	-0.5%	.
Cc1c(C)c2c(OCC(=O)NCc3ccco3)cc3c(c2oc1=O)CCC(C)(C)O3	3	.	-20	.	0.4%	-2.7
O=C(CCC(=O)N1CC2CCCN2c2ccccc21)NCc1ccc(F)cc1 (configuration not stated)	.	1.6	.	-10	1.8%	.
CC1CCN(C(=O)CCc2ccc(Oc3cc([N+](=O)[O-])cc([N+](=O)[O-])c3)cc2)CC1	?	3.2	84*	44	9.7%	?
N#Cc1cn(CCCOc2ccccc2)c2ccccc12	62	2.1	-22	-1	-1.1%	-5.8
CCc1ccc(NC(=S)NC(=O)c2c(-c3ccccc3Cl)noc2C)cc1	2	1.4	-12	-12	4.9%	-1.0
CC(C)c1ccc(OCc2ccc(C(=O)N3CCN(c4ccccn4)CC3)cc2)cc1	-2	4.5	1	-14	-1.8%	-2.1
CN(Cc1ccc(F)cc1)S(=O)(=O)c1nnc(NC(=O)c2ccccc2Cl)s1	.	1.3	.	27	2.4%	.
CCN(CC)CCCNC(=O)c1cc(-c2ccc(Cl)cc2)on1	-1	0.6	-7	-16	-5.8%[38.3 µM]	-0.9
Cc1ccc(Cl)cc1NC(=O)c1oc2ccc(S(=O)(=O)N3CCC4(CC3)OCCO4)cc2c1C	.	1.5	.	-9	2.9%	.
O=C(c1ccc(Cl)cc1)N1CCN(C(=O)C2CCCCC2)CC1	-9	-0.3	-1	6	1.9%	-6.2
Cc1onc(-c2c(Cl)cccc2Cl)c1C(=O)N1CCN(c2ccc(F)cc2)CC1	-13	-0.5	-13	15	0.2%	0.7
CN(C(=O)c1c[nH]c2ccc(S(=O)(=O)Nc3cccc(C(F)(F)F)c3)cc2c1=O)C1CCCCC1	.	1.4	.	19	0.0%	.
Cc1ccc(C(C)C)c(OCC(=O)Nn2c(=O)[nH]c3ccccc3c2=O)c1	9	-0.8	-24	1	-1.4%	-1.9
O=C(O)c1c[nH]ccc1=O	5	-0.1	-4	1	5.3%	-2.3
FC(F)(F)c1cccc(CN2CCN(c3ncccn3)CC2)c1	5	1.7	?	-16	2.5%	48*
OC(CNCc1ccccc1)(c1ccc(F)cc1)c1ccc(F)cc1	11	3.6	-34	13	.	-1.3
O=C(O)CP(=O)(c1ccccc1)c1ccccc1	18	0.9	3	31	1.3%	2.1
COc1ccc(S(=O)(=O)Nc2cccc3c2O[C@@H](CN(C)CC2CC2)[C@@H](C)CN([C@@H](C)CO)C3=O)cc1	5	0.5	-11	41	1.0%	-2.6
CCc1nc2ccc(C(=O)N(CC)CCN(C)C)cn2c1N(C)Cc1ccc(OC)cc1	0	0.3	-1	.	0.0%	-4.1
COc1ccc(N(C(=O)C(C)C)S(=O)(=O)c2cccs2)cc1	4	-0.3	-8	21	6.8%[38.3 µM]	2.0
CN1CCN(c2ccc(NC(=O)COc3ccccc3Cl)cc2)CC1	-11	-0.9	-19	39	0.1%	-3.4
C=CC1=C(C(=O)O)N2C(=O)[C@@H](NC(=O)/C(=N\OCC(=O)O)c3csc(N)n3)[C@H]2SC1	-16	-0.7	-9	5	-0.4%	-3.6
